# Vaccinia Venus – vaccinia inhibition (Venus reporter); AID 720580; Potency, µM (series often up to 36.5 µM), for the others: at the top dose activity change, negative = inhibition, most hits filed as inhibitors; 330,000 compounds, 0.46% hits; Vaccinia virus Venus reporter expression, fluorescence; active means well fitted inhibition curve with a large enough effect; inconclusive means small, poorly fitted or top-dose-only effect; inactive means no such curve, though single readings can be large or run the other way; tested in A549 cells; also: nearly all actives have a fitted effect of over 30% in size; inactives centre near -10
# Vaccinia mCherry – vaccinia inhibition (mCherry reporter); 310,000 compounds, 0.63% hits; Vaccinia virus mCherry reporter infection, fluorescence; about a quarter of the inactives have no number; Potency, µM (titrated, usually from 36.5 µM), without a hit: at the highest dose activity change, negative = inhibition, actives largely listed as inhibitors; AID 720579; active = well fitted inhibition curve with a large enough effect; inconclusive = small, poorly fitted or top-dose-only effect; inactive = no such curve, though single readings can be large or run the other way; tested in A549 cells; also: nearly all actives have a fitted effect of over 35% in size; inactives centre near -10
# * marks the source's active call; other numbers are inactive results; i = inactive; ? = inconclusive; / = not tested or not shown; & = joins results of further samples; [ ] = another dose, or the depositor's remark. % is scaled to controls: 0 for no effect and ±100 for the full control effect; potency is read from the fitted curve at half-maximal effect.
smiles	Vaccinia Venus	Vaccinia mCherry
CCN(CC)CCN(C)C(=O)CCc1nnc(-c2ccc(C)s2)o1	-21%	-10%
CSC(=NNC(=O)c1ccccc1O)SC	-3%	-7%
CC(=O)Nc1cccc(NC(=O)c2ccccc2OCc2c(C)noc2C)c1	-9%	i
Cc1c(Cc2ccccc2)c(=O)oc2c(C)c(OCC(=O)NCC3CCC(C(=O)O)CC3)ccc12 (stereo not drawn)	-12%	-18%
CCc1ccccc1NC(=S)N(CCN1CCOCC1)C1CCN(C(C)=O)CC1	1%	-17%
Cc1ccc(-c2nnc(Nc3cccc(C(F)(F)F)c3)c3ccccc23)cc1S(=O)(=O)N1CCOCC1	-21%	-22%
COc1ccc(C(=O)n2cnnc2N)cc1	-15%	-12%
CC(C)(C)C(=O)COC(=O)CNC(=O)c1ccc(Oc2ccccc2)cc1	-15%	-14%
COc1ccccc1C(=O)NCCCNc1ccc([N+](=O)[O-])cc1	-8%	i
COc1ccccc1N(CC(=O)NCCSC(C)(C)C)S(C)(=O)=O	6%	i
CCC(=O)N1CCc2cc(Br)cc(S(=O)(=O)CCC(=O)NCc3cccc(OC)c3)c21	-15%	-8%
Cc1ccc(Cn2c(=O)n(Cc3nc(-c4ccccc4)no3)c(=O)c3cc4c(cc32)OCO4)cc1	-2%	2%
O=C(CSc1cn[nH]n1)Nc1ccc(Cl)cc1Cl	8%	i
O=C(NCc1ccco1)/C(=C/C=C\c1ccccc1)NC(=O)c1ccc(Br)o1	-9%	-17%
COc1ccc(NC(=O)C2CC(=O)OC2(C)C)cc1 (stereo not drawn)	-4%	i
COc1ccc(NC(=O)CSc2nnc(NC(=O)C3CC3)s2)cc1OC	-5%	i
Cc1oc(-c2ccccc2NC(=O)C2CCCO2)nc1CNC(=O)c1[nH]c2c(C)ccc(C)c2c1C (stereo not drawn)	-14%	-9%
CCOC(=O)c1sc(=NC(=O)c2ccc(Cl)s2)n(C)c1C	-7%	-1%
CSc1cccc(NC(=O)CN(C)S(=O)(=O)c2ccccc2)c1	-13%	i
COc1cc(/C=C/C(=O)OCC(=O)c2ccc3c(c2)NC(=O)CO3)ccc1OC(F)F	-5%	-9%
O=C(COC(=O)C1CCCO1)Nc1cccc(C(F)(F)F)c1 (stereo not drawn)	-6%	-1%
CCOC(=O)N1CCN(S(=O)(=O)c2ccc3c4c(cccc24)C(=O)N3)CC1	-3%	-21%
O=C(Sc1n[nH]c(=O)[nH]c1=O)c1ccccc1	-18%	-16%
Cc1ccc(C(=O)NCCNC(=O)COc2ccc(Cl)cc2)cn1	-11%	3%
COC(=O)c1cc(C(=O)N2CCOCC2)cc([N+](=O)[O-])c1	-8%	i
CC(C)C[C@H](NC(=O)[C@@H]1Cc2ccccc2CN1)C(=O)Nc1ccc(C(C)C)cc1	-8%	i
COc1cc(CN(C(=S)NCC(=O)NC2CC2)C2CCCC2)cc(OC)c1OC	-12%	i
Cc1oc(-c2ccccc2F)nc1CS(=O)CC(=O)NCc1ccc(Cl)cc1 (stereo not drawn)	-6%	-9%
CN(Cc1n[nH]c(=S)n1C)S(=O)(=O)c1ccccc1	-13%	-2%
COc1ccc2[nH]c3c(c2c1)CCN1C(=O)C(CC(=O)NCC24CC5CC(CC(C5)C2)C4)C[C@H](C(=O)N2CCOCC2)[C@@]31CCC1CCCC1 (stereo partly drawn)	?	?

# Sorted by count of non-hydrogen atoms (lowest first): some entries from above
smiles	Vaccinia Venus	Vaccinia mCherry
CSC(=NNC(=O)c1ccccc1O)SC	-3%	-7%
CN(Cc1n[nH]c(=S)n1C)S(=O)(=O)c1ccccc1	-13%	-2%
CC(C)(C)C(=O)COC(=O)CNC(=O)c1ccc(Oc2ccccc2)cc1	-15%	-14%

# Going on with the list.
smiles	Vaccinia Venus	Vaccinia mCherry
CC(=O)NCCc1ccc(S(=O)(=O)N(C)C2CCS(=O)(=O)C2)cc1 (stereo not drawn)	-4%	-13%
COc1ccccc1NC(=O)NCCN1CCN(c2cccc(Cl)c2)CC1	0%	-13%
C[C@H](O)[C@@H]1C(=O)N2CCc3ccc(N4CCOCC4)cc3[C@@H]2C[C@@H]1N(C)C(=O)C(C)(C)C	3%	-5%
CCOC(=O)C(=O)C1=C(N2CCOCC2)/C(=C\c2cccc([N+](=O)[O-])c2)CC1	-14%	i
CCOc1ccc(NC(=O)CN(C)C(=O)CN2C(=O)c3ccc([N+](=O)[O-])cc3C2=O)cc1OCC	-7%	i
CCn1c(=O)cc(SCC(=O)Nc2ccc(C)c(F)c2)c2ccccc21	-16%	-9%
O=C(NCCc1ccc(F)cc1)Nc1ccccc1Cl	-16%	-12%
Cc1c(C#N)c(SCC(N)=O)nc2c1CCCC2	-4%	/
CCOC(=O)C(NC(C)=O)(OCc1ccc(F)cc1)C(F)(F)F (stereo not drawn)	-17%	/
O=C(c1ccco1)N1N=C(c2cccs2)CC1c1ccco1 (stereo not drawn)	27%	-9%
CCCCN(C=O)c1c(CC)nc2ccc(C(=O)NCCCn3ccnc3)cn12	-2%	8%
CC(CC(=O)O)CC(=O)Nc1ccc(S(N)(=O)=O)cc1 (stereo not drawn)	-7%	/
CCN1CCN(c2nc(C)nc3c2sc(=S)n3C)CC1	0%	4%
CCOc1ccc(N(CC(=O)NCc2ccc(F)cc2)S(=O)(=O)c2c(C)noc2C)cc1	-10%	i
COc1ccccc1NC(=O)c1sc2ncn(Cc3ccccc3C)c(=O)c2c1C	3%	-9%
COCCn1c(SCCOc2ccccc2)nc2ccccc2c1=O	-10%	-19%
Fc1cccc(Cc2noc(CN3CCCN(C4Cc5ccccc5C4)CC3)n2)c1	2%	-47%
CCn1c(N)cc(=O)[nH]c1=S	-3%	-12%
CCN1CCN(c2cn[nH]c(=O)c2Cl)CC1	-7%	-9%
COc1ccc(OC)c(NC(=O)CS(=O)(=O)Cc2nc(-c3ccc(C)cc3)oc2C)c1	-20%	-10%
Cc1cccc(NC(=O)CSCC(=O)Nc2ccccc2N2CCCC2)c1	-19%	0%
CCc1cc(C(=O)c2ccccc2)c(N)s1	-8%	?
CC(=O)c1c(C)[nH]c(C(=O)CSc2nnc(-c3ccccc3)o2)c1C	-14%	/
O[N+]1=CC=CCC1=S.On1ccccc1=S.[Zn]	?	?
CSCCC(NS(=O)(=O)c1ccc2c(c1)oc(=O)n2C)C(=O)N1CCN(c2cc(C)ccc2C)CC1 (stereo not drawn)	-12%	-24%
COc1ccc(CNC(=O)C[C@H]2C[C@H](C(=O)N3CCCCC3)[C@@]3(C)c4[nH]c5cc(CCC(=O)N(C)C)ccc5c4CCN3C2=O)cc1OC	-11%	-4%
CN(C)S(=O)(=O)c1ccc(C(=O)Nc2nnc(-c3ccc4c(c3)CCCC4)o2)cc1	-21%	?
O=C1NC[C@@H](CCCCN2CCN(CCc3ccccc3)C(=O)C2=O)N(CCC2CCCCC2)C1=O	-4%	-7%
COc1c(O)cc2oc3cc(O)c(CC=C(C)C)c(O)c3c(=O)c2c1CC=C(C)C	-29%&-30%	?
O=C(O)CCC(=O)N1N=C(c2cccs2)CC1c1cn(-c2ccccc2)nc1-c1ccccc1 (stereo not drawn)	-1%	/

# Four entries drawn at random from the list so far, as already listed:
smiles	Vaccinia Venus	Vaccinia mCherry
COc1ccc(OC)c(NC(=O)CS(=O)(=O)Cc2nc(-c3ccc(C)cc3)oc2C)c1	-20%	-10%
CC(CC(=O)O)CC(=O)Nc1ccc(S(N)(=O)=O)cc1 (stereo not drawn)	-7%	/
COc1ccc(CNC(=O)C[C@H]2C[C@H](C(=O)N3CCCCC3)[C@@]3(C)c4[nH]c5cc(CCC(=O)N(C)C)ccc5c4CCN3C2=O)cc1OC	-11%	-4%
CCn1c(=O)cc(SCC(=O)Nc2ccc(C)c(F)c2)c2ccccc21	-16%	-9%

# Going on with the list.
smiles	Vaccinia Venus	Vaccinia mCherry
Cc1nn(CC(=O)NCc2cccnc2)c(=O)c2ccccc12	-9%	-15%
CCCNC(=O)c1ccc(Cn2c(=S)[nH]c3c([nH]c4ccc(OC)cc43)c2=O)cc1	-10%	i
CC1(C)N=C(c2ccc(Cl)cc2)C(=O)N1	4%	-28%
COc1cccc(/C(O)=C2/C(=O)C(=O)N(CCN3CCOCC3)C2c2cccs2)c1 (stereo not drawn)	-3%	-11%
CCN(CC)c1ncnc2c1ncn2[C@H]1CN(Cc2ccccc2)C[C@@H](CO)O1	-6%	-4%
CC1=C(C(=O)N2CCOCC2)C(c2cccc3ccccc23)NC(=S)N1 (stereo not drawn)	3%	-1%
CC(C)n1c(NCc2c[nH]c3ccccc23)nc2ccccc21	-24%	-16%
CCOC(=O)Cn1nc(NC(=O)c2ccc(C(=O)OC)cc2)cc1C	-7%	i
CCOC(=O)[C@@H]1[C@H]2COc3ccccc3[C@@H]2N2C(=O)N(c3ccccc3)C(=O)[C@@]12C	-2%	-2%
CCOc1ccc(NC(=O)CN(C)S(=O)(=O)c2ccc(-c3ccc(=O)[nH]n3)s2)cc1	-9%	-16%
CCc1ccc(NC(=O)CN(c2ccc(C)cc2)S(=O)(=O)c2c(C)nn(C)c2C)cc1	-7%	-12%
CN(C)CCCNC(=O)c1cc(C(=O)c2ccccc2)c[nH]1	-16%	i
COCCN(Cc1ccccc1)C(=O)c1cc(S(=O)(=O)N2CCCCCC2)ccc1OC	-20%	-7%
COc1ccc(N[C@@H]2CCN3C(=O)c4ccccc4[C@@H]3C[C@H]2O)cc1	0%	i
CCSc1nc(N)nc(-c2cccs2)c1C#N	?	/
COc1ccc(NC(=O)c2cc(-c3ccc(C)c(C)c3O)n[nH]2)cc1Cl	-28%	-28%
O=C(NC12CC3CC(CC(C3)C1)C2)c1c(Cl)cccc1Cl	-4%	i
COc1ccc(C2C(C#N)=C(N)OC3=C2C(=O)CCC3)cc1Cn1nc(C)c([N+](=O)[O-])c1C (stereo not drawn)	-36%	/
CCOC(=O)c1c(C)n(Cc2ccco2)c2ccc(O)cc12	-29%	?
COc1cc(C(=O)NCC(=O)N/N=C(\C)Cc2ccccc2)cc(OC)c1OC	-5%	i
Cc1cc(NC(=O)Cc2c(F)cccc2Cl)no1	3%	-12%
COc1ccc(-n2c(SCC(=O)N3CCC(C(=O)O)CC3)nc3ccccc3c2=O)cc1OC	-16%	i
Nc1nnc(SCC(=O)NC2CCCCC2)s1	-16%	/
COc1ccccc1NCC(=O)NNCC(=O)Nc1ccc(F)c(Cl)c1	-11%	-14%
CC1S/C(=C(\C#N)C(=O)NCc2ccco2)N(c2ccc(F)cc2)C1=O (stereo not drawn)	7%	/
CNC(=O)C(=O)Nc1nc(C23CC4CC(CC(C4)C2)C3)cs1	-8%	-6%
COCCNC(=O)c1cccc(NS(=O)(=O)c2cccc3cccnc23)c1	-9%	-10%
O=C(NCCc1ccccc1)c1cc2sccc2n1Cc1ccc(F)cc1	2%	-4%
COc1ccccc1CNc1cc(C)ccc1C	16%	-2%
O=C(CN1CCN(c2ccccn2)CC1)Nc1ccc(Oc2ccccc2)cc1	-6%	/

# Later entries:
Molecule	Vaccinia Venus	Vaccinia mCherry
CCN(CC(=O)Nc1ccccc1C(F)(F)F)C(=O)c1cc2c(s1)CCCCC2	-2%	-13%
COc1cc(/C(C)=N\NC(N)=S)cc(OC)c1OC	-22%	?
CC(=O)c1ccc(N2C(=O)N(Cc3cc(C)ccc3C)c3ccccc3S2(=O)=O)cc1	-6%	-13%
Cn1nc(C(=O)Nc2cccc(C(F)(F)F)c2)c2ccccc2c1=O	-14%	-17%
COc1cc2nc(CCc3nc4cc(OC)c(OC)cc4[nH]3)[nH]c2cc1OC	-3%	i
O=S(=O)(NCc1cc(-c2ccccc2)no1)c1ccccc1Cl	-14%	i
O=C(CSc1nc(-c2ccco2)cc(C(F)(F)F)n1)NC1CCCCCCC1	-11%	-9%[1.46 µM]
COc1ccc(CN2CCNC(=O)C2CC(=O)N(C)CC2CCOCC2)c(F)c1 (stereo not drawn)	-7%	-11%
CC[N+](CC)(CC)CC(=O)Nc1ccc(SC(F)F)cc1	-12%	i
Cc1cccc(OCCNc2cc(N3CCN(CCO)CC3)ccc2[N+](=O)[O-])c1	?	10µM*
CCCc1cc(=O)oc2cc(OCC(=O)NCCN3CCOCC3)c(Cl)cc12	-12%	i
CCN(CC)CCNC(=O)CN1C(=O)CSc2ccc(S(=O)(=O)N3CCOCC3)cc21	-9%&0%	-8%&-12%
NC(=O)C(c1ccccc1)C1CCCCC1 (stereo not drawn)	?	-21%
CCn1c(=O)cc(OCC(=O)O)c2ccccc21	-17%	-4%
O=C(O)CCCCCN1C(=O)C(O)=C(C(=O)/C=C/c2ccccc2)C1c1ccccc1[N+](=O)[O-] (stereo not drawn)	-2%	-10%
Cc1ccc(C(=O)NCC(=O)NCC(=O)OCc2ccc(Cl)cc2)cc1	-14%	i
CCN=C1SC(CC(=O)NC(C)c2ccccc2)C(=O)N1CC (stereo not drawn)	-4%	i
COc1ccc(C2c3ccc(O)cc3Oc3ncn(CCCO)c(=N)c32)cc1OC (stereo not drawn)	-19%	-14%
COc1ccccc1CNC(=O)C(=O)NCC(c1ccco1)N1CCOCC1 (stereo not drawn)	-6%	-6%
Oc1ccccc1N1CCN(C(c2ccccc2)c2ccccc2)CC1	-8%	?
CCN(CC)c1cc(C)c2cc(NC(=O)/C=C/c3ccccc3OC(C)C)ccc2n1	-15%	-14%

# From PubChem BioAssay
